LASV entry inh = qHTS for Inhibitors of binding or entry into cells for Lassa Virus | Lassa virus pseudotype entry inhibition, cell reporter; control for the full effect not named in the record | Potency, µM (top dose mostly 37.9 µM), inactives show at the top dose activity change, negative = inhibition, hits mostly inhibitors | 300,000 compounds, 1.2% hits | AID 540256, 2011; active means well fitted inhibition curve with a large enough effect; inconclusive means small, poorly fitted or top-dose-only effect, or effect the other way; inactive means flat fitted curve, though single readings scatter; tested in HEK293 cells; further: on the % scale 0 is the no-effect control and ±100 the full control effect; nearly all actives have a fitted effect of over 50% in size; luciferase read-out
NS1 inh = qHTS Assay for Inhibitors of Influenza NS1 Protein Function; 270,000 compounds, 0.4% hits; S. cerevisiae slowed by influenza A NS1, growth recovery by OD600; Potency, µM (titrated, usually from 46.1 µM), without a hit: top-dose activity, positive = more growth; active means well fitted rising curve with a large enough effect; inconclusive means small, poorly fitted or top-dose-only effect; inactive means no such curve, though single readings can be large or run the other way; further: nearly all actives have a fitted effect of over 50% in size
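Growth recovery, yeast-based: influenza A NS1 expressed in S. cerevisiae causes slow growth, and suppressors are detected by OD600. The parent strain without NS1 is used as positive control.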
Cruzain Triton = qHTS Assay for Promiscuous and Specific Inhibitors of Cruzain (with detergent); 200,000 compounds, 0.43% hits; Cruzipain (Trypanosoma cruzi), P25779; AID 1478, 2009; purified cruzain, Z-FR-AMC fluorescence, 0.01% Triton; Potency, µM, for the others: max response, negative = inhibition, actives largely listed as inhibitors;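 further: plate controls were neutral wells for no effect and buffer without enzyme for full effect; nearly all actives have a fitted effect of over 40% in size; top concentration of the series not given in the record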
Target sequence (P25779 123-467 limits assumed): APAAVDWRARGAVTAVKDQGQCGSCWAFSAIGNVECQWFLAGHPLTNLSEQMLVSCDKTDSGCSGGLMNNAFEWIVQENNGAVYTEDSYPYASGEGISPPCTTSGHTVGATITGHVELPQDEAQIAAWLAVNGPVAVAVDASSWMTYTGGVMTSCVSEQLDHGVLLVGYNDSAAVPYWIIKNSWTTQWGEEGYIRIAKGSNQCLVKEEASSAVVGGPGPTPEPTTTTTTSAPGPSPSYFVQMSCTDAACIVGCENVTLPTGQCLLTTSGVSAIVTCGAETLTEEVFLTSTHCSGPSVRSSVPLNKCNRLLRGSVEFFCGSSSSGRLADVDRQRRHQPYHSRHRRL
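Detergent-containing run (0.01% Triton X-100) in acetate buffer pH 5.5 with 5 mM DTT: enzyme at 1.5 nM final, 15 min compound preincubation at room temperature, then 2 uM Z-FR-AMC substrate. Activity taken as 60 s fluorescence increase at 360/450 nm.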
SARS PLpro yeast = qHTS of Yeast-based Assay for SARS-CoV PLP | Potency, µM (series often up to 32.9 µM), without a hit: at the top dose activity, positive = growth rescue | S. cerevisiae expressing SARS-CoV PLpro, growth rescue; control for the full effect not named in the record | AID 485353, 2010 | 330,000 compounds, 0.19% hits; active means well fitted rising curve with a large enough effect; inconclusive means small, poorly fitted or top-dose-only effect; inactive means no such curve, though single readings can be large or run the other way; further: 0% is about no effect; nearly all actives have a fitted effect of over 55% in size; growth read by luminescence after 48 h
RE007 growth inh = qHTS Assay for Inhibitors of the HIV-1 protein Vpr; 360,000 compounds, 0.21% hits; Potency, µM (highest dose often 92.2 µM), for the others: at the top dose activity change, negative = less growth; S. pombe RE007 Vpr strain, BacTiter-Glo ATP luminescence, 24 h; control for the full effect not named in the record; active = well fitted falling curve with a large enough effect; inconclusive = small, poorly fitted or top-dose-only effect; inactive = no such curve, though single readings can be large or run the other way;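 further: on the % scale 0 is the no-effect control and ±100 the full control effect; nearly all actives have a fitted effect of over 50% in size; the assay follows cell death caused by Vpr and the record does not say whether a fall means rescue or toxicity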
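Fission yeast RE007 carrying one integrated HIV-1 vpr copy, seeded at OD 0.01 in PMG+AL medium with 23 nL pinned compound. Grown 24 h at 30 degrees; viability read by BacTiter-Glo luminescence after 5 min.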
Cruzain noTriton = qHTS Assay for Promiscuous and Specific Inhibitors of Cruzain (without detergent) | Potency, µM, inactives show max response, negative = inhibition, actives largely listed as inhibitors | purified cruzain, Z-FR-AMC fluorescence, no detergent | AID 1476, 2009 | Cruzipain (Trypanosoma cruzi), P25779 | 200,000 compounds, 2.3% hits;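 further: plate controls were enzyme without inhibitor for no effect and buffer without enzyme for full effect; nearly all actives have a fitted effect of over 40% in size; top concentration of the series not given in the record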
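Detergent-free condition (0.00005% Triton X-100) in acetate buffer pH 5.5 with DTT. 1.5 nM enzyme and compound were pre-mixed 15 min, then 2 uM Z-FR-AMC substrate added; reaction progress from fluorescence change between first and third reads (60 s).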
Marburg entry inh = qHTS for inhibitors of binding or entry into cells for Marburg Virus; Marburg virus pseudotyped entry inhibition, cell reporter; control for the full effect not named in the record; about a third of the inactives were read at about 46 µM; Potency, µM (titrated, usually from 37.8 µM), without a hit: at the top dose activity change, negative = inhibition, actives largely listed as inhibitors; 300,000 compounds, 1.8% hits; AID 540276, 2011; active = well fitted inhibition curve with a large enough effect; inconclusive = small, poorly fitted or top-dose-only effect, or effect the other way; inactive = flat fitted curve, though single readings scatter; tested in HEK293 cells; about a fifth of its hits are not listed in these tables; further: on the % scale 0 is the no-effect control and ±100 the full control effect; luciferase read-out
StopGo reporter = High Throughput Screening for Foot and Mouth Disease Virus Antivirals | 410,000 compounds, 1.2% hits | human cells with a luciferase reporter of 2A StopGo recoding; control for the full effect not named in the record | Potency, µM (series often up to 57.9 µM), without a hit: top-dose signal change, negative = less light | AID 1159524, 2015; active = well fitted falling curve with a large enough effect; inconclusive = small, poorly fitted or top-dose-only effect; inactive = no such curve, though single readings can be large or run the other way; tested in HEK293T cells; further: on the % scale 0 is the no-effect control and ±100 the full control effect; nearly all actives have a fitted effect of over 45% in size; luciferase light after 4 h
* hit, by the source's call; ? = inconclusive; nt = no result given; & = joins results of further samples; [ ] = remark or other dose. Unless noted, the call rests on the fitted dose curve; in most records, active means well fitted curve in the direction sought with a large enough effect; inconclusive means small, poorly fitted or top-dose-only effect, or another doubt; inactive means no such curve, though single readings can be large; an effect the other way counts as inactive or inconclusive. Potency means the concentration at half of the fitted maximal effect.

Start of the data: the first 10 compounds as a preview:
SMILES	LASV entry inh	NS1 inh	Cruzain Triton	SARS PLpro yeast	RE007 growth inh	Cruzain noTriton	Marburg entry inh	StopGo reporter
Cn1c(=O)[nH]c(=O)c2c1nc(N1CCOCC1)n2CCSc1nc2ccccc2[nH]1	10%	21%	-2.0%	-7%	14%	-2%	1%	-15%
O=C1/C(=C\c2cccs2)SC(=S)N1C1CCS(=O)(=O)C1 (centres undefined)	1%[46.1 µM]	-1%	nt	-1%	-16%	nt	14%[46.1 µM]	2%
CCOC(=O)c1cn2nc(Oc3cccc(F)c3)ccc2n1	20%[46.1 µM]	-31%	nt	-2%	9%	nt	?	20%
CCCCNC(=O)C1CCC(CNS(=O)(=O)c2cccc3nsnc23)CC1 (centres undefined)	nt	0%	nt	6%	2%	nt	nt	-15%
Cn1c(=O)c2c(nc(NCc3ccco3)n2Cc2ccc(Cl)cc2Cl)n(C)c1=O	-3%	5%	-5.9%	3%	-7%	-2%	0%&-18%	-1%
O=C(CN1CCOCC1)Nc1ccc(S(=O)(=O)NC2CCCCC2)cc1	-3%	-13%	6.9%	10%	3%	7%	-7%	2%
COc1ccc(C2OC34CCCCC3C(C#N)(C#N)C2(C#N)C(=N)O4)cc1 (centres undefined)	4%	7%	-1.7%	-5%	3%	-3%	18%	0%
COc1ccc(C2C(O)C(c3c[nH]c4ccccc34)=NN2C(=O)CCl)cc1 (centres undefined)	?	19%	nt	4%	3%	nt	3.2µM*	18µM*
CCOC(=O)c1oc2nc(CC(C)C)c3c(c2c1N)CCC3	-27%	4%	-7.2%	-2%	-13%	1%	0%	-17%
CCOc1ccccc1C(=O)Nc1nnc(CC)s1	nt	-16%	-3.6%	19%	-4%	4%	nt	6%

The whole of this part, repeating the preview:
SMILES	LASV entry inh	NS1 inh	Cruzain Triton	SARS PLpro yeast	RE007 growth inh	Cruzain noTriton	Marburg entry inh	StopGo reporter
Cn1c(=O)[nH]c(=O)c2c1nc(N1CCOCC1)n2CCSc1nc2ccccc2[nH]1	10%	21%	-2.0%	-7%	14%	-2%	1%	-15%
O=C1/C(=C\c2cccs2)SC(=S)N1C1CCS(=O)(=O)C1 (centres undefined)	1%[46.1 µM]	-1%	nt	-1%	-16%	nt	14%[46.1 µM]	2%
CCOC(=O)c1cn2nc(Oc3cccc(F)c3)ccc2n1	20%[46.1 µM]	-31%	nt	-2%	9%	nt	?	20%
CCCCNC(=O)C1CCC(CNS(=O)(=O)c2cccc3nsnc23)CC1 (centres undefined)	nt	0%	nt	6%	2%	nt	nt	-15%
Cn1c(=O)c2c(nc(NCc3ccco3)n2Cc2ccc(Cl)cc2Cl)n(C)c1=O	-3%	5%	-5.9%	3%	-7%	-2%	0%&-18%	-1%
O=C(CN1CCOCC1)Nc1ccc(S(=O)(=O)NC2CCCCC2)cc1	-3%	-13%	6.9%	10%	3%	7%	-7%	2%
COc1ccc(C2OC34CCCCC3C(C#N)(C#N)C2(C#N)C(=N)O4)cc1 (centres undefined)	4%	7%	-1.7%	-5%	3%	-3%	18%	0%
COc1ccc(C2C(O)C(c3c[nH]c4ccccc34)=NN2C(=O)CCl)cc1 (centres undefined)	?	19%	nt	4%	3%	nt	3.2µM*	18µM*
CCOC(=O)c1oc2nc(CC(C)C)c3c(c2c1N)CCC3	-27%	4%	-7.2%	-2%	-13%	1%	0%	-17%
CCOc1ccccc1C(=O)Nc1nnc(CC)s1	nt	-16%	-3.6%	19%	-4%	4%	nt	6%
NC(=O)[C@@H]1CCCNc2c(I)cc([N+](=O)[O-])cc2C(=O)N[C@@H](CCCN=C(N)N)C(=O)N[C@@H](CCCN=C(N)N)C(=O)N1	-8%	16%	-15%	-3%	nt	-17%	-3%	nt
O=C(O)COc1ccccc1/C=N/NC(=O)/C(=C\c1ccc2c(c1)OCO2)NC(=O)c1ccccc1	0%	nt	nt	0%	-5%	nt	?	-5%
COc1cc(NC(=S)Nc2cccnc2)cc(OC)c1	10%	27%	0.4%	16%	-7%	5%	3%	-8%
Cc1ccccc1CN1CCC(n2nccc2NC(=O)CCOc2ccccc2)CC1	nt	8%	nt	8%	-5%	nt	nt	14%
Cc1ccc(N2CCN(C(=O)c3ccccc3Br)CC2)c(C)c1	-14%	-82%	-0.1%	-25%	-10%	-9%	-20%	?
Cc1ccc(/C=C2/SC(=Nc3ccc(F)cc3)NC2=O)s1	?	4%	nt	0%	-6%	nt	0%[46.1 µM]	0%
CCOC(=O)CSc1nnc2c3ccccc3n(C)c2n1	?	-21%	nt	-7%	0%	nt	-15%	10%
Cc1ccc(S(=O)(=O)CCC(=O)OCC(=O)c2c(C)[nH]c3ccccc23)cc1	12%	-15%	-17%	17%	5%	-5%	4%	-1%
O=c1[nH]cnc2c1C(c1ccc(Cl)cc1)c1c(nc[nH]c1=O)O2	-1%	14%	nt	2%	15%	nt	?	-5%
C/C(=N\N)c1c(-c2ccccc2)c2cc(Br)ccc2[nH]c1=O	8%	7%	nt	-1%	36%	nt	?	-15%
CS(=O)(=O)Nc1cccc(C(=O)CC2(O)C(=O)Nc3ccc(Br)cc32)c1 (centres undefined)	?	-4%&-1%	-3.2%	6%&-1%	16%	-6%	10%&10%	-14%
Nc1cc(N)c(OCC(F)(F)F)cc1OCC(F)(F)F	0%	?	-4.2%	-5%	6%	7%	-4%	0%
COc1ccc(CCNC(=O)c2c(C)oc3ncn(CC(C)C)c(=O)c23)c(OC)c1	18%[46.1 µM]	nt	-3.3%	nt	nt	1%	nt	0%
Cc1nn(Cc2ccccc2)c(C)c1C(=O)OCC(=O)c1cc(C)n(C2CC2)c1C	15µM*	-1%	-1.9%	-5%	-3%	7%	-29%	-40%
COCCNC(=O)/C(C#N)=C/c1ccc(N2CCOCC2)o1	-2%	-2%	-21%	17%	1%	-19%	18%	-17%
Cc1ccc(S(=O)(=O)NCC2CCC(C(=O)NCc3ccc4c(c3)OCO4)CC2)cc1 (centres undefined)	-17%	-2%	-2.0%	?	-5%	2%	-19%	-5%
O=C(NCCCN1CCOCC1)c1ccc(CS(=O)(=O)c2cccc(C(F)(F)F)c2)o1	12%	-4%	-1.1%	8%	22%	-1%	8%	-18%
COc1ccccc1OCc1nc(-c2cccc(C)c2)no1	8%[46.1 µM]	nt	-7.6%	nt	nt	5%	?	42%[activator]
COc1ccc(OC)c(Cc2nnc(CCC(=O)NC(C3CC3)C3CC3)o2)c1	3%	1%	nt	1%	8%	nt	33%[46.1 µM]	-3%
CCOc1ccccc1CNCCNCC(C)O (centres undefined)	nt	5%	nt	0%	-19%	nt	nt	-15%
O=C(CN1C(=O)c2ccccc2C1=O)Nc1cc([N+](=O)[O-])ccc1O	nt	-1%	nt	2%	-6%	nt	nt	10%
CC(=O)OCC(=O)[C@@]1(O)CC[C@H]2[C@@H]3CCC4=CC(=O)C=C[C@]4(C)[C@@]3(Cl)[C@@H](Cl)C[C@@]21C	nt	-1%	nt	-1%	9%[18.4 µM]	nt	-4%	-24%
O=C(CCCCCNc1nc(=S)[nH]c2ccccc12)NCCc1c[nH]c2ccccc12	-5%	-11%	-3.5%	-2%	1%	1%	?	?
Cn1sc(NC(=O)c2ccccc2Cl)nc1=O	?	-3%	3.7%	2%	1%	9%	23%	45%[activator]
O=C(NC1CCS(=O)(=O)C1)c1cccs1 (centres undefined)	10%[46.1 µM]	8%	nt	3%	-6%	nt	1%[46.1 µM]	28%
Cc1c(C(=O)NCc2ccccc2Cl)oc2c1C(=O)CCC2	nt	-88%	0.2%	?	nt	-5%	nt	nt
O=C(CSc1ccc2nnc(-c3ccc(Cl)cc3)n2n1)N1CCCC1	nt	-9%	-5.6%	0%	-15%	6%	nt	-10%
O=C(NCCc1ccc(F)cc1)N[C@@H](Cc1ccccc1)C(=O)O	nt	2%	nt	2%	7%	nt	nt	-1%
COc1ccc(CN(Cc2cccn2C)C(=O)c2cc3cc(OC)ccc3[nH]2)cc1	?	3%	nt	-5%	-2%	nt	-20%	1%
COc1ccc2c(c1)C1NC(=S)NC(C)(O2)C1C(=O)Nc1ccccc1C (centres undefined)	-7%	13%	3.8%	15%	-9%	10%	6%	-11%
COc1ccc(CCNC(=O)CCCCC(=O)NCCc2ccc(OC)cc2)cc1	nt	9%	nt	0%	4%	nt	nt	2%
O=C(CCSCc1ccccc1Cl)N1CCN(c2cccc(Cl)c2)CC1	28%[46.1 µM]	-38%	-0.6%&1.0%	-11%	-15%	14%&1%	-6%&-6%	-19%&-28%
Cn1c(SCC(=O)Nc2nc3ccccc3s2)ncc(C(=O)Nc2ccc(Cl)cc2)c1=O	26%[46.1 µM]	nt	-0.5%	nt	nt	2%	nt	2%
CCOc1ccc(N2C(=O)CC(NCc3ccc(S(N)(=O)=O)cc3)C2=O)cc1 (centres undefined)	nt	-3%	nt	-4%	2%	nt	nt	-12%
Cc1c(-c2ccccc2)sc2nc[nH]c(=S)c12	2%	nt	nt	?	2%	nt	?	-1%
COc1ccc(OC)c(NC(=O)CSc2ccc3nnc(-c4ccccn4)n3n2)c1	nt	0%	nt	-4%	-11%	nt	nt	-10%
O=[N+]([O-])c1ccc(Cl)cc1N1CCOCC1	24%	0%	nt	0%	-4%	nt	15%[46.1 µM]	-9%
O=C(N/N=C\c1ccc(CNS(=O)(=O)c2ccccc2)o1)C(=O)Nc1ccc(F)cc1	6%	2%	1.3%	7%	1%	?	-14%	20%

Screening results as filed in PubChem BioAssay.
